High-throughput results from PubChem.
Rango release inh – inhibitors of RanGTP-induced Rango-importin beta complex dissociation; O95149+P62826; Biochemical FRET Rango-importin beta, RanGTP-induced dissociation; 340,000 compounds, 0.071% hits; Potency, µM (titrated, usually from 46.1 µM), for the others: at the top dose activity change, negative = inhibition; active means falling FRET ratio curve, often poorly fitted, with flat reads before Ran was added; inconclusive means other falling curves, or compound fluorescence or quenching; inactive means flat or rising ratio curve;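 also: potency is read from the fitted curve at half-maximal effect; % of control where 0% means no effect; nearly all actives have a fitted effect of over 45% in size; -100% = wells without RanGTP and RCC1; the record marks most hits as doubtful in a second field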
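Quantitative HTS using a FRET biosensor: 0.1 uM Rango, 0.25 uM importin beta, 0.6 uM Ran, 2 mM GTP, 0.2 uM RCC1 final, PBS with DTT, Tween-20 and BSA. Post-read taken 45 min after Ran addition.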
GLA inh pH 4.5 – alpha-galactosidase A (human) inhibition, pH 4.5; activity change, negative = inhibition, % at 105 µM; AID 1467; 230,000 tested, under 10 active; purified enzyme, 4-MU-alpha-Gal fluorescence, pH 4.5; inconclusive = small, poorly fitted or top-dose-only inhibition, or a rising curve; inactive = flat fitted curve, though single readings scatter; no compound was filed as active;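 also: 0% = full activity with enzyme and -100% = basal without enzyme; dose as in the result columns while the protocol names 77 µM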
Rango-impB inh – prevents formation of the Rango-importin beta complex; Rango CFP/YFP FRET sensor + importin beta, 45 min; Potency, µM (highest dose often 92.2 µM), without a hit: at the top dose inhibition of complex formation; AID 540263; 340,000 compounds, 0.031% hits; active = rising FRET ratio curve, often small or poorly fitted; inconclusive = mostly compound fluorescence or quenching in the first reads; inactive = flat curves in all reads;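 also: potency is read from the fitted curve at half-maximal effect; 0% = DMSO wells and 100% = buffer wells lacking importin beta; nearly all actives have a fitted effect of over 15% in size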
Target sequence (Q14974 whole entry, looked up): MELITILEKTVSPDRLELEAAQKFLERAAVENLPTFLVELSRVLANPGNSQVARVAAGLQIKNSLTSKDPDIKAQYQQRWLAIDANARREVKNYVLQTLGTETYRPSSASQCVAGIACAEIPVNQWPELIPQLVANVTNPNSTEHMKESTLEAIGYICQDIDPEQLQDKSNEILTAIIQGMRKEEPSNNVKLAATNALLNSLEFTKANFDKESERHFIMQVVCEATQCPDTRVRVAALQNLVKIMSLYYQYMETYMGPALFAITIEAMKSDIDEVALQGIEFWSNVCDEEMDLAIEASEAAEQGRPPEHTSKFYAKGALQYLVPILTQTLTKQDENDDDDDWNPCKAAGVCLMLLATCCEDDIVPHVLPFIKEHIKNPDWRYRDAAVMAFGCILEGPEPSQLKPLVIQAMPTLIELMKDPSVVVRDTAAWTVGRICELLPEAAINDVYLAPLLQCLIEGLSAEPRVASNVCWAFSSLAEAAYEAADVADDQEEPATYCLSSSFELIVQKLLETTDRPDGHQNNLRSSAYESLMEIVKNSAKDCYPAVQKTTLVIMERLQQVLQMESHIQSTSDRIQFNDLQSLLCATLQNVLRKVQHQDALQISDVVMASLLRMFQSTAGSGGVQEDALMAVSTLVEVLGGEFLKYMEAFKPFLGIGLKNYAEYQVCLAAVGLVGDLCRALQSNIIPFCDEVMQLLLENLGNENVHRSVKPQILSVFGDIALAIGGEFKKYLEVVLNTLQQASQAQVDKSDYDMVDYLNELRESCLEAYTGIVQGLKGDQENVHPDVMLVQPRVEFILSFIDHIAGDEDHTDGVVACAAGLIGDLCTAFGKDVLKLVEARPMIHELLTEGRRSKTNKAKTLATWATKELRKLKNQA
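Inhibition scored from the CFP 486 nm/YFP 530 nm FRET ratio 45 min after adding 0.125 microM importin beta to 50 nM Rango biosensor preincubated 5 min with compound (room temperature, PBS with DTT, Tween-20, BSA). No-importin wells as positive control.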
miR-21 FLuc – raises the signal of a miR-21 reporter; 340,000 tested, under 10 active; Potency, µM (highest dose often 38.3 µM), for inactives: at the top dose reporter change, positive = more light; HeLa miR-21 FLuc reporter, luciferase, 48 h; active = well fitted rising curve with a large enough effect; inconclusive = small, poorly fitted or top-dose-only effect; inactive = no such curve, though single readings can be large or run the other way;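 also: % of control where 0% means no effect; miR-21 action dims this reporter so a rising signal means less miR-21 action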
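HeLa cells stably expressing CMV-driven firefly luciferase with a downstream miR-21 binding sequence, endogenously expressing miR-21, were treated with titrations (up to about 40uM final) for 48 hours at 37 degree Celsius. Luciferase luminescence was read after lysis.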
* hit, by the source's call; ? = inconclusive; . = not tested or not shown; & = joins results of further samples; [ ] = remark or other dose.

No.	mol	Rango release inh	GLA inh pH 4.5	Rango-impB inh	miR-21 FLuc
1	COc1ccc(-c2noc(N3CCC(C(=O)Nc4cc(OC)c(OC)c(OC)c4)CC3)n2)cc1	9%	.	0.7%	-4%
2	Cc1cc(NC(=O)C(C)SCC(=O)Nc2cc(C(F)(F)F)ccc2N2CCCCC2)no1 (centres undefined)	1%	.	-0.9%	.
3	COc1c(OC(C)=O)c(=O)n2c3ccccc3c3ccnc1c32	0%	.	21µM*	.
4	CCOC(=O)Cn1nc(C)n(-c2ccc(Cl)cc2)c1=O	8%	-2	0.0%	0%
5	COc1ccc(CNC(=O)CC23CC4CC(CC(C4)C2)C3)cc1OC	9%	.	0.1%	-28%
6	Cc1ccc(-c2ncccc2OC(=O)C23CC4CC(CC(C4)C2)C3)cc1	1%	-2	3.2%	-22%
7	Cc1ccc(-n2c(=O)c(C#N)cc3c(=O)n4ccccc4nc32)cc1C	?	?	?	3%
8	CCOC(=O)N1CCN(C(=O)c2cn(C)c3ccc(S(=O)(=O)N(C)C4CCCCC4)cc3c2=O)CC1	0%	.	-0.6%	-1%
9	Cc1cccc2c1CC(C)(C)N/C2=C\C(N)=O	-10%	-2	0.0%	-3%
10	Cc1ccc(-c2nnc(-c3ccc4ccccc4c3)o2)cc1	12%	.	3.6%	.
11	COCCNC(=O)C(NC(=O)C1CCCCC1)C(C)C (centres undefined)	1%	2	-1.2%	0%
12	Cc1ccc(NC(=O)COC(=O)CNC(=O)c2ccc3ccccc3c2)c([N+](=O)[O-])c1	0%	-3	-2.3%	-5%
13	O=C(O)c1ccc(NS(=O)(=O)c2cc(Cl)ccc2Cl)cc1	4%	-4	0.1%	-6%
14	CC(=O)c1cccc(Oc2cc(NN3CCCCC3)c([N+](=O)[O-])cc2[N+](=O)[O-])c1	4%	.	3.1%	12%
15	Clc1cc(Cl)cc(C2=NCCC(c3ccccc3)O2)c1 (centres undefined)	.	4	.	-7%
16	Cc1nn(C)c(C)c1S(=O)(=O)NC1CCCC1	2%	-12	2.3%	-2%
17	CSc1ccccc1NC(=O)CN(C)C(=O)c1ccc2c(c1)OCCO2	-8%	.	-0.8%	-9%
18	CCOC(=O)C(C)n1cnc2c(nnn2Cc2ccc(C)cc2)c1=O (centres undefined)	8%	-14	-2.5%	-4%
19	COc1ccc(Nc2nc(N)nc(CSc3nc(C)cc(C)n3)n2)cc1	7%	6	4.7%	-32%
20	O=S(=O)(NCC(c1ccco1)N1CCCCC1)c1cccc(C(F)(F)F)c1 (centres undefined)	2%	.	1.4%	.
21	O=C(CCC(=O)Nc1ccccc1)NNC(=O)c1ccccc1Cl	4%	-1	2.9%	-4%
22	COCCOC(=O)c1c(C)nc(SCC(=O)Nc2ccc(C)cc2)c(C#N)c1-c1ccco1	0%	-5	6.7%	-3%
23	Cc1onc(-c2ccccc2Cl)c1C(=O)NCc1nc(-c2ccc(C(F)(F)F)cc2)no1	0%	-7	2.6%	18%
24	CCOc1cc(Br)ccc1S(=O)(=O)NCc1ccccc1	4%	-4	-2.0%	-7%
25	Cc1ccc(NC(=O)C2CCN(S(=O)(=O)c3ccc(Cl)c(C(F)(F)F)c3)CC2)nc1	6%	.	5.3%	.
26	CCOc1ccc(-n2c(C)nc3cc(C(=O)NCc4ccc5c(c4)OCO5)ccc32)cc1	10%	-16	-1.9%	-1%
27	CCc1nc(NCc2ccccc2)c(C#N)c2c1CCCC2	2%	10	-1.4%	-6%
28	COc1cccc([C@@H]2CC=C(C(=O)O)[C@H](c3ccccc3F)N2S(=O)(=O)c2ccc(C)cc2)c1	-24%	.	-0.2%	.
29	O=C(NCCN1CCN(c2ccccc2)CC1)Nc1ccccc1Br	-6%	.	1.1%	-5%&-1%
30	CN(C(=O)COc1ccc([N+](=O)[O-])cc1)C1CCS(=O)(=O)C1 (centres undefined)	-11%	4	0.8%	4%
31	CCCSc1nc(N2CCOCC2)c2c(c1C#N)CC(C)(C)SC2	1%	-11	-1.2%	1%
32	COc1ccc(CC(=O)NNC(=O)CCC(=O)Nc2cc(C)ccc2C)cc1	7%	2	1.4%	0%
33	Cc1ccc(NCC(=O)N/N=C/c2cccn2C)cc1	-16%	-7	-0.3%	1%
34	CCn1cc(C(=O)NCc2ccc(C)cc2)c(=O)c2cc(S(=O)(=O)N(C)C)ccc21	3%	.	0.4%	-1%
35	CCC(CC)N1CCN(S(=O)(=O)c2ccc(OC)cc2)CC1	4%	.	-0.6%	-2%
36	C/C(CC(=O)Nc1ccc(Cl)c(C(F)(F)F)c1)=N\NC(N)=S	-3%	-4	0.4%	-41%
37	COc1ccccc1CNC(=O)N1CCN(S(=O)(=O)c2ccc(Cl)cc2)CC1	-16%	.	0.2%	-1%
38	CCOc1ccc(C(=O)COc2ccc(NC(C)=O)cc2)cc1	1%	-7	-1.4%	-5%
39	CCOC(=O)COc1ccc(Br)cc1/C=C\c1[nH]c(=O)[nH]c(=O)c1[N+](=O)[O-]	?	8	0.1%	5%
40	COc1ccc(-c2cc3nc(C)c(CCC(=O)NCc4ccc(F)cc4)c(C)n3n2)c(OC)c1	5%	-10[21.1 µM]	-3.3%	-4%
41	COc1ccc(-c2sc3cc4c(cc3c2C#Cc2cncn2C)OCO4)cc1	-21%	.	0.5%	.
42	CC[C@@H]1C=C(C)C[C@H](C)C[C@H](OC)[C@H]2O[C@@](O)(C(=O)C(=O)N3CCCC[C@H]3C(=O)O[C@H](/C(C)=C/[C@@H]3CC[C@@H](O)[C@H](OC)C3)[C@H](C)[C@@H](O)CC1=O)[C@H](C)C[C@@H]2OC	.	-9	.	4%
43	Cc1cc(N2C(=O)CCC2=O)ccc1NC(=O)c1cccs1	9%	0	-1.8%	-2%
44	CC(=O)Nc1nnc(SCC(=O)c2ccc(F)cc2)s1	1%	-4	4.2%	-15%
45	CCCn1nnc(NC(=O)C(C)Oc2ccc(Cl)cc2Cl)n1 (centres undefined)	10%	-12	-1.8%	-9%
46	COc1cc(C(=S)N2CCOCC2)ccc1OS(=O)(=O)c1ccccc1[N+](=O)[O-]	1%	-22	-1.1%	-10%
47	O=C(OCC(=O)N1CCCc2ccccc21)c1cc(S(=O)(=O)N2CCOCC2)ccc1F	3%	.	-3.7%	.
48	CCOc1ccc(C(C)=O)cc1COC(=O)c1cccnc1SC	3%	2	-3.1%	1%
49	C=CCn1c(SCC(=O)c2cc(C)n(C)c2C)nnc1-c1ccncc1	9%	15	0.0%	-5%
50	Cc1ccc(N2C(=O)c3ccccc3C2C(=O)c2ccc(C)c(C)c2O)cc1 (centres undefined)	-5%	-14	?	-18%
51	Cc1sc2ncn(CC(=O)OCC(=O)NC(C)(C)C)c(=O)c2c1C	17%	7	-2.4%	1%
52	CN(C)c1nc(NN)nc(Nc2ccc(F)cc2)n1	12%	.	1.1%	-1%
53	O=C(Nc1cccc([N+](=O)[O-])c1)C1CCN(C(=O)Cc2ccccc2)CC1	-2%	.	-1.2%	5%
54	CCOc1ccc(Cc2nnc(SCC(=O)Nc3ccc(OC)cc3)n(N)c2=O)cc1	11%	.	-1.1%	.
55	CC(C)n1cc(-c2nc(C(=O)NN)cs2)c(=O)n(Cc2ccccc2)c1=O	-8%	?	?	4%
56	CC(C(=O)NCCN1C(=O)S/C(=C\c2cccnc2)C1=O)N1C(=O)c2ccccc2C1=O (centres undefined)	3%	-8	-1.6%	-4%
57	CSc1ccccc1C(=O)C1CCCN(Cc2c(C)n(C)n(-c3ccccc3)c2=O)C1 (centres undefined)	-11%	5	-0.1%	1%
58	COc1ccc(C(C(=O)NC(C)(C)C)N(Cc2ccco2)C(=O)CCC(=O)Nc2cc(C)on2)cc1 (centres undefined)	2%	0	0.5%	0%
59	O=C(COC(=O)CNC(=O)c1ccccc1)Nc1ccccc1Cl	4%	-5	-3.8%	5%
60	C=CCn1c(SCC(=O)OCC)nc(C(F)(F)F)cc1=O	-17%	6	2.6%	2%

Next entries:
No.	mol	Rango release inh	GLA inh pH 4.5	Rango-impB inh	miR-21 FLuc
61	Cn1cc(-c2nnnn2-c2ccccc2)c(=O)c2ccccc21	2%	-9	1.1%	2%
62	CC(=O)OC1[C@H](Oc2c(O)c(C)c3c4c2[C@@H](C)CC[C@@H]4[C@@H](C)C[C@@H]3C=C(C)C)OC[C@@H](O)[C@@H]1O (some centres undefined)	0%	.	-0.9%	.
63	Cc1ccc(-c2nc(=S)c3c(n2Cc2cccnc2)CC(C)(C)OC3)cc1	-4%	-3	2.1%	0%
64	C=CCn1c(CNC(=O)c2ccco2)nnc1SCC(=O)c1ccccc1	-2%	-1	-2.9%	-18%
65	Cc1ccccc1NC(=O)Cn1nc(C(=O)O)c2ccccc2c1=O	-2%	.	?	-1%
66	O=C(Nc1ccc2[nH]c3c(c2c1)CCCC3)c1ccco1	24%	-4	?	-5%
67	OC(CC#CCN1CCCCC1)(c1ccccc1)c1ccccc1	-4%	.	-1.0%	1%
68	Cn1nc(C(=O)NC2CCCCC2)c2ccccc2c1=O	-14%	4	-7.1%	1%
69	COc1ccc(/C=C/C(=O)N2CCN(c3ccccn3)CC2)c2ccccc12	-7%	5	-1.5%	0%
70	COC(=O)c1c(NC(=O)CN2C(=O)C(=O)N(C(C)C)C2=O)sc(C)c1C	25%	.	-3.4%	.
71	CCOC(=O)N1CCc2c(sc(NC(C)=O)c2C(N)=O)C1	-16%	.	-5.0%	.
72	Cc1sc2ncnc(SCC(=O)N3CCCC3)c2c1C	4%	4	0.3%	-21%
73	Cc1ccc(NC(=O)CSc2ccccc2)cc1S(=O)(=O)N1CCOCC1	1%	.	1.5%	.
74	Cc1c(NC(=O)Nc2ccc(C(C)C)cc2)c(=O)n(-c2ccccc2)n1C	0%	.	-1.1%	0%
75	CCc1cc2cc(C)cc(C)c2nc1SCC(=O)Nc1cc(C)on1	0%	3	1.0%	-3%
76	Oc1ccc(CN2CCc3ccccc3C2)c2cccnc12	15%	5	0.1%	?
77	Nc1ccccc1/C=C/c1ccccc1N	?	.	?	.
78	O=C(NCc1ccccn1)c1cccc([N+](=O)[O-])c1	4%	-6	-5.0%	-2%
79	Cc1scc(C(=O)Nn2cnnc2)c1-c1ccccc1	10%	-4	-1.3%	-2%
80	COc1cc(C2C(C(=O)c3ccc(C)o3)=C(O)C(=O)N2c2cc(C)on2)cc(Br)c1O (centres undefined)	-16%	-9	?	-15%
81	COc1ccc(C(=O)COC(=O)c2ccccc2O)c(OC)c1	10%	.	-4.6%	.
82	CC[C@H](C)NC(=O)c1ccc(Cn2c(=S)[nH]c3c([nH]c4ccc(OC)cc43)c2=O)cc1	3%	4	4.4%	-24%
83	O=C(CCCSc1nc2ccccc2s1)NCc1ccco1	4%	-8	1.8%	-18%
84	COc1cccc(OCC(=O)N2CCC3(CC2)CC(=O)c2ccccc2O3)c1	12%	.	-0.8%	.
85	O=C(CCn1c(=O)[nH]c2ccsc2c1=O)N1CCN(Cc2ccc3c(c2)OCO3)CC1	-4%	-2	-0.9%	-2%
86	Cc1ccc(C(=O)C(C)OC(=O)C2=COCCO2)cc1C (centres undefined)	-10%	3	0.3%	-12%
87	CCOC(=O)c1c(NC(=S)Nc2ccccc2)sc(C)c1C	1%	2	-1.1%	-7%
88	Cc1ccc(-c2csc(NC(=O)CSc3nc(C)cs3)n2)cc1	1%	-1	-1.0%	-37%

Entries of single compounds from above:
`O=C(CCCSc1nc2ccccc2s1)NCc1ccco1` in the list: Rango release inh = 4%; GLA inh pH 4.5 = -8; Rango-impB inh = 1.8%; miR-21 FLuc = -18%
`CCOC(=O)c1c(NC(=S)Nc2ccccc2)sc(C)c1C` in the list: Rango release inh = 1%; GLA inh pH 4.5 = 2; Rango-impB inh = -1.1%; miR-21 FLuc = -7%
`Cc1ccc(-c2csc(NC(=O)CSc3nc(C)cs3)n2)cc1` in the list: Rango release inh = 1%; GLA inh pH 4.5 = -1; Rango-impB inh = -1.0%; miR-21 FLuc = -37%

Not all compounds are listed. The share of hits here may be higher or lower than overall.
